Bioassay records (PubChem)
Vaccinia Venus: inhibitors of vaccinia virus (Venus reporter); Vaccinia virus Venus reporter expression, fluorescence; Potency, µM (top dose mostly 36.5 µM), without a hit: at the highest dose activity change, negative = inhibition, actives largely listed as inhibitors; 330,000 tested, 0.46% active; active means well fitted inhibition curve with a large enough effect; inconclusive means small, poorly fitted or top-dose-only effect; inactive means no such curve, though single readings can be large or run the other way; tested in A549 cells; also: nearly all actives have a fitted effect of over 30% in size; inactives centre near -10
Vaccinia mCherry: inhibitors of vaccinia virus infection (mCherry reporter signal); Vaccinia virus mCherry reporter infection, fluorescence; about a quarter of the inactives have no number; Potency, µM (highest dose often 36.5 µM), for the others: at the highest dose activity change, negative = inhibition, most hits filed as inhibitors; 310,000 tested, 0.63% active; AID 720579; active = well fitted inhibition curve with a large enough effect; inconclusive = small, poorly fitted or top-dose-only effect; inactive = no such curve, though single readings can be large or run the other way; tested in A549 cells; also: nearly all actives have a fitted effect of over 35% in size; inactives centre near -10
Starred values were filed as active, the others as inactive; i = inactive; u = inconclusive; x = not tested or not shown; [ ] = another dose, or the depositor's remark. % is scaled to controls: 0 for no effect and ±100 for the full control effect; potency is read from the fitted curve at half-maximal effect. Compounds were not picked by outcome; about 0.82% have a hit in one of these screens.

| no. | Compound | Vaccinia Venus | Vaccinia mCherry |
| --- | --- | --- | --- |
| 1 | COc1ccccc1C(c1nnnn1Cc1ccccc1)N1CCN(c2nc3ccccc3s2)CC1 (stereo not given) | -26% | x |
| 2 | O=C(Nc1nc2ccc(Cl)cc2s1)c1cc(=O)c2ccccc2o1 | -11% | -11% |
| 3 | CC(=O)c1cccc(NC(=O)C(C)Sc2nnc3ccccn23)c1 (stereo not given) | -4% | i |
| 4 | CCNC(=O)C1(C)CCCN(C(=O)c2cc(-c3cccs3)oc2C)C1 (stereo not given) | -1% | 17% |
| 5 | COc1ccc(NCc2cc3cc4c(cc3n(CC(=O)Nc3ccc(F)cc3F)c2=O)OCO4)cc1 | -11% | -12% |
| 6 | CCCC(C)C(=O)Nc1ccc(Cl)cn1 (stereo not given) | -4% | -17% |
| 7 | O=c1c2cc(F)ccc2sn1-c1ccccc1Cl | u | u |
| 8 | CN(C)c1ccc(CN(Cc2ccco2)C(=O)COc2ccc(F)cc2)cc1 | -13% | -16% |
| 9 | Nn1cc(Br)c(=O)[nH]c1=O | -14% | i |
| 10 | COCCCNC(=S)N/N=C/c1ccc(O)cc1O | -11% | u |
| 11 | O=C(NCCN1CCOCC1)c1cccc(NS(=O)(=O)c2ccc(Br)cc2)c1 | -18% | i |
| 12 | Cc1cccc(OCC(=O)NCc2ccccc2)c1 | -15% | -13% |
| 13 | CC(=O)Nc1ccc(S(=O)(=O)NCc2nnnn2-c2ccc(Cl)cc2)cc1 | -10% | i |
| 14 | CS(=O)(=O)Nc1cccc(S(=O)(=O)N2CCN(C(=O)c3ccccc3)CC2)c1 | 2% | 4% |
| 15 | COc1ccc(OC)c(NC(=O)CSc2nnc(CNc3ccc(F)cc3)o2)c1 | -4% | -9% |
| 16 | Cc1cc([N+](=O)[O-])ccc1NC(=O)CCC(=O)N1CCCC1 | 3% | -10% |
| 17 | FC(F)Oc1ccc(N=C2SCC3CCCCN23)cc1 (stereo not given) | -5% | -20% |
| 18 | CS(=O)(=O)Nc1ccccc1C(=O)Nc1ccccc1Cl | -3% | -18% |
| 19 | CCOC(=O)[C@]12CCCC=C1N(Cc1ccc(Cl)cc1Cl)C(=O)[C@H](CC(=O)N1CCC(c3ccccc3)CC1)C2 | -4% | -19% |
| 20 | O=C(NCCCn1ccnc1)c1[nH]c(C(F)(F)F)nc1-c1ccccc1 | 0% | 29% |
| 21 | Cc1nc(-c2ccc(F)cc2)sc1CCNC(=O)c1ccccc1 | 0% | 5% |
| 22 | Cn1c2ccccc2c2cnn(CC(=O)NCCCN3CCCCC3)c(=O)c21 | -10% | -10% |
| 23 | O=c1c2ccccc2nc(-c2ccc([N+](=O)[O-])cc2)n1-c1ccccc1 | 1% | -7% |
| 24 | CC1CCC(CN2C(Nc3ccccc3)=NC[C@@H]2Cc2ccccc2)CC1 (stereo not given in full) | -29% | u |
| 25 | N#Cc1nc(COc2ccc(F)cc2)oc1N1CCN(Cc2ccccc2)CC1 | -14% | x |
| 26 | O=C(NCc1ccc(Cl)cc1)c1cccc(NC2=NC3CS(=O)(=O)CC3S2)c1 (stereo not given) | -16% | -4% |
| 27 | CCOC(=O)CNC(=O)CSc1nnc(Cn2c(=O)sc3ccccc32)n1C | -17% | -12% |
| 28 | CCCCCCOc1ccc(N2C(=O)CC(N3CCC(C(=O)OCC)CC3)C2=O)cc1 (stereo not given) | -10% | i |
| 29 | Cc1ccc(Cn2ccc(NC(=O)c3cc(-c4cccc(Cl)c4)on3)n2)cc1 | -7% | -9% |
| 30 | O=c1c2cnn(-c3ccccc3)c2ncn1Cc1ccccc1 | -25% | -25% |
| 31 | CC1(C(=O)NCc2ccccc2)Cc2c(-c3cccc(C(N)=O)c3)ccnc2O1 (stereo not given) | u | -19% |
| 32 | Cn1ncc2c(N3CCN(c4cccc(Cl)c4)CC3)ncnc21 | -27% | u |
| 33 | CC(C)(C)c1ccc(OCC(=O)NCC2(N3CCOCC3)CCCCC2)cc1 | -20% | -25% |
| 34 | Cc1nc(C)c(-c2ccc(SCC(=O)Nc3ccc(Br)cc3)nn2)s1 | -28% | -27% |
| 35 | O=C(NCc1cccnc1)c1cccn1-c1ncc(C(F)(F)F)cc1Cl | -4% | -5% |
| 36 | FC(F)(F)c1ccc(-c2nnc(-c3cccnc3)o2)cc1 | -14% | -18% |
| 37 | COc1ccccc1-c1ccc(C(=O)NCCN2CCOCC2)c(N2CCN(c3ccccc3F)CC2)n1 | -6% | -20% |
| 38 | O=C(O)C1C2C=CC(C2)C1C(=O)NCCc1ccncc1 (stereo not given) | 4% | -5% |
| 39 | O=C(CN1C(=O)C2C3C=CC(C3)C2C1=O)N1CC(=O)N(CCc2ccccc2)C(=O)C1 (stereo not given) | -13% | i |
| 40 | CCCCC(Sc1nc(N)c(NC(=O)c2ccc(OCC)cc2)c(=O)[nH]1)C(=O)O (stereo not given) | 4% | i |
| 41 | COCOc1cccc(CN2CCC(C)(Oc3cccc(C#N)c3)C2)c1 (stereo not given) | -24% | u |
| 42 | O=C(O)CCN1C(=O)C(=C2CCCCCC2)SC1=S | -4% | x |
| 43 | COc1ccc(-c2nc3ccccc3c(=O)n2CCCN2CCOCC2)cc1 | -2% | -10% |
| 44 | Cc1ccc(-c2nnc(N3CCOCC3)c3ccccc23)cc1S(=O)(=O)NCC1CCCO1 (stereo not given) | -25% | x |
| 45 | Fc1ccccc1NC(=S)N(CCN1CCCCCC1)Cc1cccs1 | 1% | -4% |
| 46 | O=C1Nc2ccccc2SC(c2ccccc2)C1O (stereo not given) | -4% | -14% |
| 47 | COCCCNC(=O)Cn1nnc(-c2ccc(NC(=O)c3ccccc3OC)cc2)n1 | -10% | -15% |
| 48 | Cc1ccc2nc3c(cc(C(=O)NCCc4ccccc4)c(=N)n3CC3CCCO3)c(=O)n2c1 (stereo not given) | 2% | -14% |
| 49 | CCOC(=O)C1CCCN(Cc2ccccc2Cl)C1 (stereo not given) | -7% | i |
| 50 | CC(=O)c1ccc(OC(=O)CCc2nc3ccccc3s2)cc1 | -3% | i |

Four compounds out of the list, arranged by number of heavy atoms, high to low.
| no. | Compound | Vaccinia Venus | Vaccinia mCherry |
| --- | --- | --- | --- |
| 47 | COCCCNC(=O)Cn1nnc(-c2ccc(NC(=O)c3ccccc3OC)cc2)n1 | -10% | -15% |
| 40 | CCCCC(Sc1nc(N)c(NC(=O)c2ccc(OCC)cc2)c(=O)[nH]1)C(=O)O (stereo not given) | 4% | i |
| 38 | O=C(O)C1C2C=CC(C2)C1C(=O)NCCc1ccncc1 (stereo not given) | 4% | -5% |
| 42 | O=C(O)CCN1C(=O)C(=C2CCCCCC2)SC1=S | -4% | x |

(continued)
Fields – Vaccinia Venus, Vaccinia mCherry
(51) CCOC(=O)N1CCN(C(=O)c2cccc(NS(=O)(=O)c3ccc(F)c(F)c3)c2)CC1
 : -11%, -11%
(52) COc1ccc(CCNC(=O)CCc2ccc(S(=O)(=O)NC(C)C)cc2)cc1OC
 : -6%, -22%
(53) Cc1ccccc1NC(=O)CN(c1ccc(Cl)cc1Cl)S(=O)(=O)c1ccccc1
 : -16%, -12%
(54) c1cncc(CSc2nnc3ccc(-c4ccncc4)nn23)c1
 : -2%, -17%
(55) O=C(O)c1nn(CC(=O)N2CCC(Cc3ccccc3)CC2)c(=O)c2ccccc12
 : -4%, 6%
(56) COc1ccc(NC(=O)c2nc3nccc(C)n3n2)cc1S(=O)(=O)N1CCOCC1
 : 2%, -11%
(57) C#CCn1c(=O)cc(C)c2ccccc21
 : -4%, -4%
(58) C[C@H](CO)N1C[C@H](C)[C@H](CN(C)S(=O)(=O)c2ccccc2C#N)OCc2cnnn2CCCC1=O
 : -9%, -7%
(59) CC1(C)Cn2c(nnc2-c2cccc(O)c2)S1
 : -10%, -13%
(60) CCC(C)NC(=O)Cn1c(=O)n(-c2ccc(OC)cc2)c(=O)c2ccc(C(=O)NCc3ccc(C)cc3)cc21 (stereo not given)
 : 4%, i
(61) COc1ccccc1N1CCN(C(=O)c2cc3c(=O)n4cccc(C)c4nc3s2)CC1
 : -12%, i
(62) CCCNC(=O)Cn1c(=O)cnc2ccccc21
 : -19%, -8%
(63) Cc1ccccc1C(=O)NC(=S)Nc1ccc(Cc2ccncc2)cc1
 : -4%, -11%
(64) Cn1ncc(N=Cc2ccccc2O)c1C(=O)N1CCOCC1
 : -8%, -11%
(65) COc1ccc(-c2ccc(OC)cc2C(=O)O)cc1
 : -9%, -15%
(66) Cc1cccc(C)c1NC(=O)CN(C)C(=O)CC1OC(=O)c2ccccc21 (stereo not given)
 : -2%, -3%
(67) CCNc1nc(N2CCOCC2)nc(N(c2ccccc2)c2ccccc2)n1
 : u, -14%
(68) Cc1ccc(-n2cc(C(=O)Oc3ccc(F)cc3)c3ccccc3c2=O)cc1
 : -12%, -12%
(69) CCS(=O)(=O)N1Cc2ccccc2CC1C(=O)Nc1cccc(C)c1 (stereo not given)
 : -14%, -26%
(70) CC(C)(C)C(=O)Nc1ccc(S(=O)(=O)Nc2ccccn2)cc1
 : -1%, -13%
(71) CC(C)(C)NC(=O)NC(=O)COC(=O)C1=COCCO1
 : 12%, 13%
(72) O=C(CCS(=O)(=O)c1ccccc1)Nc1nccs1
 : -9%, 38%[activator]
(73) COc1ccc(C2CC(c3c(O)n(CCc4ccccc4)c(=O)[nH]c3=O)=NN2)cc1OC (stereo not given)
 : -17%, -8%
(74) Cc1ccc(-n2ncc(C(=O)NCCCN3CCN(C)CC3)c2C2CCN(C(=O)OC(C)(C)C)CC2)cc1
 : -8%, -9%
(75) CSc1ccccc1OCc1cc(C(=O)NCCn2nc(C)cc2C)no1
 : -16%, -5%
(76) CCOc1ccc(OCC)c(NC(=O)Cn2c(C)nc3ccccc3c2=O)c1
 : -7%, -1%
(77) Cc1ccc2nc(-c3cccc(Br)c3)c(Cc3ccccc3C(F)(F)F)n2c1
 : -18%, i
(78) O=C(O)CC/C(=C/c1cccc(NC(=O)c2ccccc2Cl)c1)c1nc2ccccc2s1
 : -12%, -9%
(79) COCCCN1C(=O)C(CC(=O)NCCCN(C)C)CC(C(=O)N(C(C)C)C(C)C)=C1C (stereo not given)
 : -8%, 8%
(80) NCCCC[C@@H]1NC(=O)c2cc([N+](=O)[O-])cc(F)c2NCCCC[C@@H](C(N)=O)NC(=O)CNC1=O
 : 1%, i

Part of the list above, set out differently:
(6) CCCC(C)C(=O)Nc1ccc(Cl)cn1 (stereo not given)
(7) O=c1c2cc(F)ccc2sn1-c1ccccc1Cl
(8) CN(C)c1ccc(CN(Cc2ccco2)C(=O)COc2ccc(F)cc2)cc1
(9) Nn1cc(Br)c(=O)[nH]c1=O
(10) COCCCNC(=S)N/N=C/c1ccc(O)cc1O

compound no.,6,7,8,9,10
Vaccinia Venus,-4%,u,-13%,-14%,-11%
Vaccinia mCherry,-17%,u,-16%,i,u

(continued)
Fields – Vaccinia Venus, Vaccinia mCherry
(81) CCCc1nc2ccccc2c(C(=O)OCc2nnc(-c3cc(OC)c(OC)c(OC)c3)o2)c1CC
 : u, -26%
(82) Nc1nonc1-n1nnc(C(=O)N/N=C/c2ccccc2Br)c1CN1CCCC1
 : -4%, i
(83) COc1ccccc1C(=O)Nc1ccncc1
 : 3%, -6%
(84) O=[N+]([O-])c1ccc2[nH]nc(-c3ccccc3)c2c1
 : -14%, -8%
(85) O=C(O)C(Cc1ccccc1)n1cnnn1 (stereo not given)
 : -2%, -12%
(86) CC(C)=CCC1=C(O)c2ccccc2C(=O)C1=O
 : -4%, -15%
(87) COc1cc(F)cc(C2=CC(=O)C[C@H](c3ccc(F)cc3)C2)c1
 : -11%, u
(88) C[C@@]12C(=O)N(c3cccc(F)c3)C(=O)N1[C@@H]1c3ccccc3OC[C@@H]1[C@H]2c1ccccc1
 : -9%, -10%
(89) Cc1ccc(NC(=O)CSc2nc3c([nH]c4ccccc43)c(=O)n2-c2ccccc2)c(C)c1
 : -17%, -17%
(90) CC1=CC2=NC(=O)/C(=C/c3coc4ccc(Cl)cc4c3=O)C(=N)N2O1
 : 30%, -6%
(91) O=C(O)CSc1nc2c(cnn2-c2ccccc2)c(=O)n1-c1ccc(Br)cc1
 : 0%, -13%
(92) Cc1ccc(C23CC4CC(CC(C(=O)NC(C(=O)O)C(C)C)(C4)C2)C3)cc1 (stereo not given)
 : -2%, i
(93) CN(C(=O)Cn1nc(Cc2cccnc2)c2ccccc2c1=O)c1cccc(C(F)(F)F)c1
 : -13%, -19%
(94) CCCCCCCCN1C(=O)[C@H](CC(=O)NCCCCc2ccccc2)C[C@@]2(C(=O)OC)CC(C)(C)CC=C12
 : -19%, -12%
(95) CCc1nn2c(=O)cc(COc3ccc(/C=C(\C#N)C(=O)Nc4ccc(F)cc4)cc3OC)nc2s1
 : 1%, -10%
(96) CCOc1ccc(NC(=O)c2nc(S(=O)(=O)Cc3ccccc3C)ncc2Cl)cc1
 : -21%, 14%
(97) Cc1ccc(S(=O)(=O)Nc2ccc(NC(=O)Nc3cccc(C(F)(F)F)c3)cc2)cc1
 : u, 11µM*
(98) CC(=O)Nc1ccc(NC(=O)CN2CCCC(C)C2)c(Cl)c1 (stereo not given)
 : -9%, x
(99) CCN(CC)c1ccc2cc(C(=O)c3cccs3)c(=O)oc2c1
 : 177%[activator], 20%
(100) O=C(Nc1ccc(F)c(Cl)c1)C1Cc2c(-c3cccc(F)c3)ccnc2O1 (stereo not given)
 : -6%, 11%
(101) Cc1ccc(-c2nnc(SCC(=O)NCCN3C(=O)CSC3=O)n2C)cc1
 : -9%, -15%
(102) CC1=C2C(=O)C3C(CC=C4CC(O)CCC43C)C2CCC12OC1CC(C)CNC1C2C (stereo not given)
 : -16%, -14%
(103) CC(=O)c1c(C)nn(C(C)CC(=O)O)c1C (stereo not given)
 : -6%, x
(104) CCCNC(=S)Nc1ccc(Br)cc1
 : -18%, x
